Screening results deposited in PubChem by several laboratories.
Insulin prom inh – TRM-6 insulin promoter activity inhibition; TRM-6 cells (human fetal islet line), insulin promoter-eGFP reporter, imaging; reporter expression induced with tamoxifen; inhibition, % at 2 µM; 130,000 tested, 0.9% active;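 active means inhibition above the mean plus 3 SD, with well images judged a real hit on visual review, cut at about 60% in these data, passing the limit was not always enough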
GALR2 ag – GALR2 (human) receptor agonism. O43603. GALR2-expressing cells, agonist activation read-out. 140,000 tested, 0.48% active. AID 803. activation, %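 (tested at 5 µM)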;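 active means above mean plus 3 SD of all compounds, about 5% in these data, not always enough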;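 further: 0% = vehicle buffer wells and 100% = reference agonist at full effect; tested in CHO reporter cells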
Target sequence (O43603 whole entry, looked up): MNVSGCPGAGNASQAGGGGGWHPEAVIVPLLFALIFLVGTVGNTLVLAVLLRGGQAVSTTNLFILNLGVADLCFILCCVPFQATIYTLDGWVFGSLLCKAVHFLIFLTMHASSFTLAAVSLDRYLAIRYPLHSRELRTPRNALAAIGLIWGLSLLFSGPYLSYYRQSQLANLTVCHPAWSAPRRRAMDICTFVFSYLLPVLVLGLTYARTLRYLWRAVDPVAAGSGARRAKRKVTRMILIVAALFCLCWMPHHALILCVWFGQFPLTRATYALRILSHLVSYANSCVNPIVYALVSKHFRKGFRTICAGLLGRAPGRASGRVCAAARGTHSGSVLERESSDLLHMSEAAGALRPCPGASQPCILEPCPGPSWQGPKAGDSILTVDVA
RGS16-Gao – regulators of human RGS16-Galphao interaction; O15492+P09471; bead-based flow cytometry RGS16-Galphao binding, fluorescence; actives lie on both sides; binding response (% of control), % at 10 µM; 220,000 tested, 0.38% active; AID 1441;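 active means below 25% or above 175%, edge rows of some plates excepted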;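 further: Galphao activated by GDP with aluminum fluoride before binding; 100% = wells without compound and 0% = beads without RGS; some results beyond the cut were filed as inactive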
Target sequence (O15492 whole entry, looked up): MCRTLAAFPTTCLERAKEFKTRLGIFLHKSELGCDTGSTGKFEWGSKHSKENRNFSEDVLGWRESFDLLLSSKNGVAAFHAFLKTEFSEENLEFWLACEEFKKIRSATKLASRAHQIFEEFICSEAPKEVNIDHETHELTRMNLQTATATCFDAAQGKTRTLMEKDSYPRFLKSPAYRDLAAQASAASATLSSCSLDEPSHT
Target sequence (P09471 whole entry, looked up): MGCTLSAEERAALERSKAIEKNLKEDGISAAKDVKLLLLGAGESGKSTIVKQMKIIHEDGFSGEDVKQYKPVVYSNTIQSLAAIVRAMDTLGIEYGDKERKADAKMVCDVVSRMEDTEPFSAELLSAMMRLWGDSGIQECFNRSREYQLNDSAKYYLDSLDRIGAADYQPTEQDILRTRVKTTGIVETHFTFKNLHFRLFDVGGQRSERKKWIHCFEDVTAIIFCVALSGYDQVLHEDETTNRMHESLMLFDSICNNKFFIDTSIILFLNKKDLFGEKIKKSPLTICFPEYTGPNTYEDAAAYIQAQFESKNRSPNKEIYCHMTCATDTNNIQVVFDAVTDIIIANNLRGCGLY
PKD1 kinase inh – PKD1 (human) kinase inhibition; Q15139; PKD1 kinase fluorescence polarization assay; inhibition, %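 (about 10 µM by stock and volumes)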; 200,000 tested, 0.056% active; AID 797;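 active means inhibition of 50% or more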;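 further: controls were vehicle for no effect and a reference inhibitor for full effect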
HSV augment – HSV replication enhancement; AID 1956; 220,000 tested, 0.005% active; HSV replication augmentation in cells, fold increase; maximum fold increase;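 active means peak rise of 1.5-fold or more in the series; tested in PC3 cells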;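 further: first round at 10 µM; read as green reporter fluorescence; hits show the peak of a series up to 25 µM; 1 = signal of infected wells without compound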
Insulin prom inh cell count – also measured in Insulin prom inh; calls as there; normalized cell count, %; measured here: cell count, toxicity; reference of the scale not given here;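 cells exposed to compound for 48 h; stained nuclei by imaging scaled within each plate; lower means fewer cells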
HSV augment primary fold – also measured in HSV augment; calls as there; fold increase; compound at 10 µM; measured here: primary screen fold increase 10 uM; tested in PC3 cells;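 GFP signal in the first replicate; 1 = infected wells without compound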
The depositor's hits bear a star; i = inactive; / = no result given.

Fields: Insulin prom inh, Insulin prom inh cell count, GALR2 ag, RGS16-Gao, PKD1 kinase inh, HSV augment, HSV augment primary fold
S=c1[nH]nc(-c2ccc(Cl)cc2Cl)n1Cc1ccccc1
    29.0, 70.3, -0.4, 86.8, 1.4, i, 1.03
O=C(Cn1cncn1)NCc1cccc(OC(F)F)c1
    0.0, 150.5, /, 100.3, 2.7, i, 0.97
CCOC(=O)c1c(-c2ccc(OC)cc2)csc1NC(=O)CNCc1ccco1
    /, /, -0.1, 101.6, -12.8, i, 0.99
c1ccc2c(c1)CCN(c1nc3cc4c(cc3s1)OCCO4)C2
    /, /, -2.7, 98.8, -2.6, i, 0.66
COc1cc2c(cc1OC)C(c1ccccc1N)=NCC2
    /, /, /, 114.4, /, i, 1.02
CCN(CC)C(=O)C1CC(=O)OC12CCCCC2 (configuration not stated)
    -7.7, 148.6, -0.7, /, 1.8, i, 0.89
O=C(CSc1nc2ccc(Cl)cc2[nH]1)NCCc1ccc(Cl)cc1
    7.7, 124.0, -2.2, 78.6, -5.6, i, 0.93
COc1ccc(-n2c(SCC(=O)Nc3ccc4c(c3)OCO4)nc3c(c2=O)SCC3)cc1
    /, /, -2.8, 94.8, -22.8, i, 0.8
CC1(C)CC(c2nc(-c3ccc(Cl)cc3)cs2)CCS1 (configuration not stated)
    /, /, -4.5, 94.5, -2.6, i, 0.99
NC(=O)C1CCN(C(=O)CCSc2ccc(Cl)cc2)CC1
    /, /, /, 110.4, -8.4, i, 0.93

Entries of single compounds, quoted from the list.
CCOC(=O)c1c(-c2ccc(OC)cc2)csc1NC(=O)CNCc1ccco1 across the screens: Insulin prom inh: /; Insulin prom inh cell count: /; GALR2 ag: -0.1; RGS16-Gao: 101.6; PKD1 kinase inh: -12.8; HSV augment: i; HSV augment primary fold: 0.99
CCN(CC)C(=O)C1CC(=O)OC12CCCCC2 (configuration not stated) across the screens: Insulin prom inh: -7.7; Insulin prom inh cell count: 148.6; GALR2 ag: -0.7; RGS16-Gao: /; PKD1 kinase inh: 1.8; HSV augment: i; HSV augment primary fold: 0.89

The list goes on.
Fields: Insulin prom inh, Insulin prom inh cell count, GALR2 ag, RGS16-Gao, PKD1 kinase inh, HSV augment, HSV augment primary fold
CC(=O)Oc1ccc2ccccc2c1C(NC(=O)Cc1ccccc1)c1ccccc1Cl (configuration not stated)
    -45.8, 84.8, -1.6, 98.5, 9.8, i, 1.05
CC1=C(C(=O)OC(C)C)C(c2cccs2)n2ncnc2N1 (configuration not stated)
    /, /, -3.4, 103.8, 1.1, i, 0.98
CCOC(=O)C(NC(=O)c1ccc(Cl)cc1Cl)(Nc1ccc(C)cc1)C(F)(F)F (configuration not stated)
    54.0, 129.7, -1.4, 98.4, -15.7, /, /
Cc1cc(-c2ccccc2)nc2oc(C(=O)NN)c(N)c12
    /, /, /, 98.8, /, i, 1.04
Cc1nc(-c2ccccc2)nc2[nH]ccc(=O)c12
    9.6, 125.7, -2.9, 103.0, 13.6, i, 0.98
COC(=O)Cc1ccc(N(Cc2ccccc2F)S(=O)(=O)c2ccc(Cl)cc2)cc1
    57.1, 95.7, -1.4, 102.9, -4.7, i, 1
Cc1ccc(CNC(=O)CCCOc2cc(=O)n(C)c3ccccc23)o1
    /, /, -1.8, 100.0, 4.0, i, 0.88
CC(NC(=O)C1CC=CCC1C(=O)O)C1CC2CCC1C2 (configuration not stated)
    -51.3, 92.2, 1.2, 96.8, -6.3, i, 0.83
CCN(CC)c1c([N+](=O)[O-])c(=O)n(C)c2ccccc12
    50.0, 120.7, /, 98.0, 1.0, i, 0.84
CC1CCN(S(=O)(=O)c2cccc(-c3nnc(-c4cccnc4)o3)c2)CC1
    12.5, 97.9, -0.9, 100.2, -13.6, i, 0.94

Next compounds:
Fields: Insulin prom inh, Insulin prom inh cell count, GALR2 ag, RGS16-Gao, PKD1 kinase inh, HSV augment, HSV augment primary fold
Cn1c(NCc2c[nH]c3ccccc23)nc2ccccc21
    -9.1, 144.6, -0.8, 100.8, 9.6, i, 0.5
CCOC(=O)c1ccccc1NC(=O)c1ccc(F)cc1
    8.1, 75.0, 0.2, 114.4, 0.4, i, 1.21
COC(=O)NNC(=O)COc1ccc2ccccc2c1Br
    37.0, 91.6, -0.3, 51.2, 6.5, i, 1.02
C/C(=N\Nc1cccc(C(F)(F)F)c1)c1ccc(O)cc1
    /, /, /, 100.4, -2.0, i, 0.68
Nc1ccccc1C(=O)N/N=C1\C2CN3CCN(C2)CC1(c1ccccc1)C3
    6.9, 143.2, -1.1, 101.2, 0.1, i, 0.97
Cc1ccc(SCCN2C(=O)NC(C)(C)C2=O)cc1
    29.0, 120.3, -2.4, 101.2, 3.5, i, 0.92
O=S(=O)(N/N=C/c1cccnc1)c1ccc(Cl)c(Cl)c1
    /, /, /, 99.5, /, i, 1.25
CCn1c(SCC(=O)N2CCCC2)nc2c1c(=O)n(C)c(=O)n2C
    /, /, -1.4, 100.1, -14.1, i, 0.86
COc1cccc(CNC(C)C(=O)Nc2ccc3c(c2)OCCO3)c1 (configuration not stated)
    /, /, /, 102.3, 2.1, i, 0.91
COc1ccc(NC(=S)NNC(=O)c2ccccc2OC(F)F)cc1
    2.7, 18.0, -2.1, 106.4, -8.3, i, 0.8

Additional structures.
Fields: Insulin prom inh, Insulin prom inh cell count, GALR2 ag, RGS16-Gao, PKD1 kinase inh, HSV augment, HSV augment primary fold
COc1cccc2cc(-c3nnc(-c4ccccc4)o3)c(=O)oc12
    14.3, 109.0, /, 112.8, 2.0, i, 0.96
COc1cc(-n2c(=O)c3ccccc3n(Cc3cccc(F)c3)c2=O)cc(OC)c1OC
    /, /, /, 100.1, -10.4, i, 0.8
CCCCN(Cc1cc2cc(C)ccc2[nH]c1=O)C(=O)c1ccccn1
    /, /, /, 97.8, /, i, 1.07
O=S(=O)(NCc1ccccc1)c1cccc2cccnc12
    -40.5, 146.4, -1.2, 97.4, -2.7, /, /
O=C(Nc1nc(=O)n(C(=O)c2cccc(C(F)(F)F)c2)s1)c1ccccc1
    /, /, /, 100.4, /, i, 0.93
Cc1nc2ccc(NC(=O)/C=C/C(=O)O)cc2nc1C
    /, /, /, 100.5, 0.1, i, 0.88
C/C(CCc1ccco1)=N/NC(=O)CCC(=O)Nc1cccc(Cl)c1
    -21.6, 213.0, -1.9, 100.9, -13.9, /, /
Cc1nc(NC(=O)c2cccs2)ccc1Br
    58.8, 97.4, /, 100.4, 2.3, i, 1.27
Cc1ccc(N2CC(C(=O)NC3CCSC3=O)CC2=O)cc1 (configuration not stated)
    /, /, -0.9, 77.7, 0.7, i, 1
O=[N+]([O-])c1cnn(-c2nc(-c3cccs3)cc(C(F)(F)F)n2)c1
    /, /, /, 90.3, -3.8, i, 0.8

Following part
Fields: Insulin prom inh, Insulin prom inh cell count, GALR2 ag, RGS16-Gao, PKD1 kinase inh, HSV augment, HSV augment primary fold
Cc1ccc(C)c(NC(=S)N(Cc2ccc(Cl)cc2)Cc2ccc(C(=O)O)cc2)c1
    /, /, /, 104.1, -6.0, i, 1.15
C=CCN1CC2(c3ccccc3)CN(CC=C)CC(c3ccccc3)(C1)C2=O
    /, /, /, 98.2, 3.7, i, 1.1
C=CCn1c(C)cc(C(=O)CN2NS(=O)(=O)c3ccccc3C2=O)c1C
    -21.4, 67.4, /, 105.2, 0.0, i, 0.78
CCCCC(=O)N/N=C/c1ccc(Sc2cccc3cccnc23)o1
    -1.4, 142.7, -0.2, 114.8, -0.2, i, 0.83
O=C(O)c1cccc2c1C(=O)c1ccccc1-2
    /, /, /, 92.0, /, i, 0.99
CC(C)N(Cc1nc(-c2ccc(Cl)cc2)no1)C(=O)C12CC3CC(CC(C3)C1)C2
    -6.7, 115.9, 1.4, 102.3, 0.2, i, 0.95
COc1cccc(-c2nc(CS(=O)(=O)CC(=O)Nc3cccc(C)c3C)c(C)o2)c1
    /, /, -1.3, 95.4, -4.1, i, 0.95
Cc1[nH]c2ccccc2c1C1=NNC(=Nc2ccc(F)cc2)SC1
    /, /, -1.7, 100.1, 16.7, i, 0.9
CCCN1C(=O)C(O)(CC(=O)c2ccc3c(c2)OCCO3)c2ccccc21 (configuration not stated)
    -11.1, 80.6, -2.9, 96.8, 0.2, i, 0.93
Cc1ccc(/C=N/NC(=O)CNC(=O)c2ccc(S(=O)(=O)N(C)C)cc2)o1
    22.2, 158.5, /, 109.4, -0.2, i, 0.93

More compounds follow:
Fields: Insulin prom inh, Insulin prom inh cell count, GALR2 ag, RGS16-Gao, PKD1 kinase inh, HSV augment, HSV augment primary fold
Cc1c(Cc2ccccc2)c(=O)oc2cc(OCc3ccc(C(=O)O)cc3)ccc12
    -66.7, 83.1, /, 94.0, -4.5, i, 0.98
CC(C)N1CCC(N2CCN(Cc3ccc(Oc4ncccn4)cc3)CC2CCO)CC1 (configuration not stated)
    /, /, /, 102.2, /, i, 1.09
Cc1cc(C(=O)N/N=C/c2ccc(O)c(O)c2O)c(C)n1-c1ccccc1
    /, /, /, 99.8, -7.4, i, 1.16
Cc1cc([N+](=O)[O-])nn1Cc1ccc(C(=O)N/N=C/c2ccccc2)cc1
    /, /, -0.6, 94.6, -3.1, i, 1.03
CCCC(NS(=O)(=O)c1ccc(Br)cc1)C(=O)O (configuration not stated)
    /, /, -4.2, 73.3, -6.8, i, 1.05
Cc1ccc(-c2nc3cccnc3s2)cc1NC(=O)C1c2ccccc2Oc2ccccc21
    -10.0, 81.4, 1.8, 116.1, -1.7, /, /
COc1ccc(CN=C2Nc3ccccc3CS2)cc1
    14.7, 82.5, -3.0, 103.4, -6.5, i, 0.86
CCN(CC)C(c1ccc(F)cc1)c1nnnn1C1CCCCC1 (configuration not stated)
    /, /, 9.8*, 101.3, -2.8, i, 0.9
ON=C1/C(=N\O)CC2(C/C1=N/O)OCCO2
    -43.2, 58.5, -0.2, 102.1, -3.4, i, 0.8
CN1Cc2c(N3CCOCC3)nc(SCCC#N)c(C#N)c2CC1(C)C
    /, /, /, 104.9, /, i, 1.02

New compounds follow.
Fields: Insulin prom inh, Insulin prom inh cell count, GALR2 ag, RGS16-Gao, PKD1 kinase inh, HSV augment, HSV augment primary fold
CC(C)NC(=S)Nc1ccc2cn[nH]c2c1
    -33.3, 72.9, -0.9, 110.9, 9.1, i, 0.68
CC(C)N(C=O)C1(C(=O)NC2CCCCC2)CCCCC1
    26.3, 106.2, 0.1, 103.8, 1.0, i, 0.98
CCN(CC)CCN1C(=O)c2ccccc2NC1c1ccc(C)cc1 (configuration not stated)
    5.6, 54.9, -0.5, 99.5, -4.8, i, 1.16
CC(NC(=O)CCSc1nc(-c2ccc3c(c2)OCO3)cc(C(F)(F)F)n1)c1ccccc1 (configuration not stated)
    -43.2, 79.0, 1.6, 100.3, 7.6, i, 0.83
CC(=O)N(Cc1cccs1)Cc1cc2cc(C)c(C)cc2nc1Cl
    -85.7, 98.0, /, 110.9, -6.2, i, 0.96

Molecules listed so far with an aryl thioether with sulfur outside any ring (eight):
Fields: Insulin prom inh, Insulin prom inh cell count, GALR2 ag, RGS16-Gao, PKD1 kinase inh, HSV augment, HSV augment primary fold
O=C(CSc1nc2ccc(Cl)cc2[nH]1)NCCc1ccc(Cl)cc1
    7.7, 124.0, -2.2, 78.6, -5.6, i, 0.93
COc1ccc(-n2c(SCC(=O)Nc3ccc4c(c3)OCO4)nc3c(c2=O)SCC3)cc1
    /, /, -2.8, 94.8, -22.8, i, 0.8
NC(=O)C1CCN(C(=O)CCSc2ccc(Cl)cc2)CC1
    /, /, /, 110.4, -8.4, i, 0.93
Cc1ccc(SCCN2C(=O)NC(C)(C)C2=O)cc1
    29.0, 120.3, -2.4, 101.2, 3.5, i, 0.92
CCn1c(SCC(=O)N2CCCC2)nc2c1c(=O)n(C)c(=O)n2C
    /, /, -1.4, 100.1, -14.1, i, 0.86
CCCCC(=O)N/N=C/c1ccc(Sc2cccc3cccnc23)o1
    -1.4, 142.7, -0.2, 114.8, -0.2, i, 0.83
CN1Cc2c(N3CCOCC3)nc(SCCC#N)c(C#N)c2CC1(C)C
    /, /, /, 104.9, /, i, 1.02
CC(NC(=O)CCSc1nc(-c2ccc3c(c2)OCO3)cc(C(F)(F)F)n1)c1ccccc1 (configuration not stated)
    -43.2, 79.0, 1.6, 100.3, 7.6, i, 0.83
